Bioassay records: PubChem BioAssay, several laboratories
LANA-H2B inh – blockers of LANA interaction with H2A/H2B – biochemical, FP readout, HTS, primary screen. AID 2629, 2010. Protein LANA1 (Human herpesvirus 8 type P (isolate GK18)), Q9QR71. cell-free LANA-H2A/H2B peptide, fluorescence polarization. inhibition, % (concentration not given with the values). hit rate 0.6% among 320,000; in the data active = inhibition mostly above about 10%, no sharp cut-off; inactive = mostly below about 6.7%;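 also: stock transfer was 7.5 nL into about 10 µL; 0% = median of vehicle wells and 100% = median of positive control wells; one replicate is shown; the record names a cut of 25% in any replicate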
Beta apoptosis – inhibitors of cytokine-induced beta cell apoptosis, primary screen, luminescence; INS-1E cytokine-induced death, ATP luminescence, 48 h; percent of positive-control rescue, neutral wells zero; protection from apoptosis, % (no concentration beside the values); hit rate 0.8% among 300,000; AID 435005, 2010;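 active = all replicates at 75% or more, or half of them and the mean; inconclusive = half reach 75% but not the mean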;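 also: 0% = cytokine-treated negative control wells and 100% = positive control rescue; higher means more ATP so stronger rescue from cytokine killing; wells of about 40 µL received 100 nL stock; the first replicate is given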
RanGTP-Imp inh – inhibitors of RanGTP-importin-beta interaction, primary screen, biochemical, FRET, CFP-Ran, YFP-importin-beta, homogeneous; Ran GTPase (GTP-bound) - importin-beta complex; cell-free CFP-Ran/YFP-importin-beta FRET ratio; inhibition, % (no concentration beside the values); hit rate 1.1% among 300,000;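 active = most replicates above 15%; inconclusive = exactly half above 15%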;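 also: 0% = DMSO wells and 100% = Ran loaded with GDP instead of GTP; wells of about 40 µL received 100 nL stock; the first replicate is given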
MLL AF4-AF9 inh – inhibitors of AF4 peptide binding to AF9, primary screen, biochemical, AlphaScreen, biotin-AF4 peptide, FLAG-AF9, single point. inhibition, % at 10 µM. hit rate 0.47% among 350,000. AID 651704, 2012;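 active = every replicate reaching a set inhibition limit, whatever the replicate mean, cut at about 25% in these data; inconclusive = mean inhibition reaches that limit but some replicates miss it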;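 also: 0% = plate neutral control median and 100% = total signal loss; the record names both 10 and 1 µM as test concentration; the first replicate is given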
Target sequence (P42568 whole entry, looked up): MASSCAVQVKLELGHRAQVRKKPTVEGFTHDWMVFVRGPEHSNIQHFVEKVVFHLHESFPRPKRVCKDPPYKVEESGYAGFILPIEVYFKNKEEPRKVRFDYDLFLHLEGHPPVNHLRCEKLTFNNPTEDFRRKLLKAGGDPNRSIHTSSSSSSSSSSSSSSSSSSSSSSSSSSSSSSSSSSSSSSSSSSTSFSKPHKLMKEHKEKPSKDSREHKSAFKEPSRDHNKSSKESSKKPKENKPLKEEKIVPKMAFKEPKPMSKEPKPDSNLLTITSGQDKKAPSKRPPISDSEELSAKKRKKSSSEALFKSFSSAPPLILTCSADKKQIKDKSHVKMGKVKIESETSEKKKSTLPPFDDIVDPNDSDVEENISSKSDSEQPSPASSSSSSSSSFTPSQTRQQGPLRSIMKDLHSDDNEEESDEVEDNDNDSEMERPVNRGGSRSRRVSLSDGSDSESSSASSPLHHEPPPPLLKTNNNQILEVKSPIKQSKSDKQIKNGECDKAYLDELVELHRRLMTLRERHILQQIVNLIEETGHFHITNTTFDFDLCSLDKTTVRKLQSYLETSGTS
Calb FLC – C. albicans growth inhibition with fluconazole, primary screen, CaCi-2 strain, Alamar Blue fluorescence | AID 1979, 2009 | hit rate 0.57% among 300,000 | growth inhibition, % (no concentration beside the values) | C. albicans CaCi-2 (fluconazole-resistant clinical isolate) + fluconazole, 48 h;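 active = most replicates above 75%; inconclusive = exactly half above 75%; inactive = most below 75%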;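 also: all wells also contain fluconazole at 8 µg/ml as a sub-toxic cotreatment; 0% = median of DMSO wells and 100% = median of geldanamycin control wells; wells of about 8 µL received 7.5 nL stock; the first replicate is given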
Bfl-1 A1 inh – caspase 3/7 activation in MEF A1-2A-BIM cells, primary screen, A1 inhibitor project, cell-based, luminescence, HTS | hit rate 0.066% among 330,000 | Caspase-Glo 3/7 luminescence, 3 h; percent of clofoctol response, vehicle zero | caspase activation, % (no concentration beside the values) | AID 2462, 2010;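 active = over half of replicate activation scores above 10%, or exactly half above 10 with the replicate mean above 10; inconclusive = replicate mean below 10 yet half the replicates above 10; inactive = over half of replicates below 10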;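 also: wells of about 30 µL received 50 nL stock; many hits fall short of the cut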
Vif TR-FRET – inhibitors of Vif binding to APOBEC3G peptide, primary screen, biochemical, TR-FRET, GST-Vif 1-94, biotin-A3G peptide, dose response retest (AID 1117319) | Virion infectivity factor (Human immunodeficiency virus type 1 group M subtype B (isolate … | TR-FRET GST-Vif / biotin-A3G peptide binding; higher % means a stronger effect; test concentration not given here; strong numbers were not always called active | one-dose inhibition, %; IC50 in µM for titrated hits | hit rate 0.57% among 260,000;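 active = above the screen mean plus three standard deviations and confirmed in dose response; inconclusive = results disagree or hit not tested in dose response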;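 also: Vif residues 1-94 fused to GST binding biotinylated APOBEC3G peptide 110-148; 0% = full assay without inhibitor and 100% = GST in place of GST-Vif; retest series ran down from 100 µM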
T cruzi inh – inhibitors of intracellular T. cruzi growth, primary screen, luminescence, NIH3T3 host cells | AID 1885, 2009 | T. cruzi beta-gal in NIH3T3, 90 h | inhibition, % (concentration not given with the values) | hit rate 1.4% among 300,000;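 active = mean inhibition across valid replicates above about 55%, limit read from the data; inconclusive = mean below that limit but half or more replicates reach it; inactive = mean below it, under half of replicates reach it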;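 also: signal also drops with host cell toxicity which is not excluded here; 0% = plate median of DMSO wells and 100% = zero luminescence signal; higher percent means less beta-gal luminescence so fewer parasites; stock transfer was 50 nL into about 50 µL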
* hit, by the source's call; ? = inconclusive; / = not tested or not shown; & = joins results of further samples; ! = not active in a repeat. An unsorted share of the library; any-hit rate near 4.3%.

SMILES	LANA-H2B inh	Beta apoptosis	RanGTP-Imp inh	MLL AF4-AF9 inh	Calb FLC	Bfl-1 A1 inh	Vif TR-FRET	T cruzi inh
O=C(CNS(=O)(=O)c1ccccc1)OCC(=O)c1ccc([N+](=O)[O-])cc1	-1.6	3	-2.2	/	-6	0.7	-7%	0
O=C(CSc1ncn[nH]1)NCCc1ccccc1	-3.0	-1	2.5	/	13	0.3	4%	-11
COc1ccc(NC(=O)C2CCN(c3ncnc4c3nc3n4CCCCC3)CC2)cc1Cl	-9.3	3	3.4	3.3	-6	0.8	1%	16
CN/C(=C/[N+](=O)[O-])NCCSCc1ccc(CN(C)C)o1	16*!	-13	-4.5	-9.0	/	1.0	-1%	1
COc1ccc(NC(=O)[C@H](Cc2c[nH]c3ccccc23)NC(=O)[C@@H]2Cc3ccccc3CN2)cc1	7.2	/	3.4	6.4	5	0.7	/	5
CCn1nc(C(=O)Nc2cccc3ccccc23)c(Cl)c1Cl	-6.6	6	6.3	/	-5	0.3	1%	11
Cc1c(Cl)cccc1-n1cnc(=O)c2ccccc21	1.0	7	-4.0	-3.4	5	0.3	/	/
O=C(CN1C(=O)NC2(CCCC2)C1=O)Nc1cc(S(=O)(=O)N2CCOCC2)ccc1OCC(F)(F)F	-1.7	1	1.5	0.3	-7	1.5	/	6
CCC(C)c1ccc(NC(=O)COC(=O)C2=COCCO2)cc1 (stereo not given)	1.0	1	-3.1	/	1	0.3	1%	-13
Cc1ccc(N2CC(NC(=O)C(=O)c3c[nH]c4ccccc34)CC2=O)cc1C (stereo not given)	0.7	1	4.8	-1.0	/	-0.1	10%	16
COc1ccc(N2CCN(C(=O)COC(=O)c3ccccc3OCc3ccc(F)cc3)CC2)cc1	2.0	/	8.2	3.5	-3	-0.3	0%	-1
COc1ccc(Cl)cc1N1C(=N)SCC1=O	-0.4	-7	2.2	-0.3	-3	-0.6	/	-20
CC(C)(C)NC(=O)CSc1nnc(SCC(=O)NC(C)(C)C)s1	0.3	2	5.0	-1.9	5	-0.1	16%	5
Cc1ccc(-c2nnc(OCc3cccnc3)c3ccccc23)cc1	-1.0	2	-1.9	0.2	-6	-1.1	4%	18
COc1ccc(CNC(=O)Nc2ccc(C)c(C)c2)cc1	-3.3	-2	0.6	-0.1	-2	-0.3	8%	-3
O=C(CCS(=O)(=O)c1ccc(Br)s1)Nc1ccccc1Br	0.3	4	-2.2	/	-5	0.4	21%	11
Oc1cccc(Nc2nc(N3CCOCC3)nc(N3CCOCC3)n2)c1	-2.0	-5	-3.3	2.6	6	-0.7	/	8
Nc1nc2n(n1)C(c1cccs1)CC(c1ccc(Br)cc1)N2 (stereo not given)	-0.2	-16	?	/	0	1.8	-12%	74*
O=C(CSc1nc2nc(-c3cccs3)cc(C(F)(F)F)c2c(=O)[nH]1)Nc1ccc(F)c(F)c1	-12	25	0.5	-2.7	14	-0.3	12%	-10
CCc1nc(N2CCN(C(=O)c3ccco3)CC2)c(C#N)c2c1COC(C)(C)C2	-0.8	-2	?	1.8	-7	0.6	/	11
O=C(Nc1ccccc1-c1ccccc1)C(c1ccccc1)c1ccccc1	-1.6	-4	0.2	/	11	0.2	1%	13
COc1cc(/C=N/NC(=O)c2ccc(CN(C)S(=O)(=O)c3ccc(C)cc3)cc2)ccc1O	1.5	8	5.3	-1.7	0	0.6	-2%	2
c1ccc(-c2cc(CSc3nc4ccccc4[nH]3)on2)cc1	-0.7	41	1.7	/	1	0.4	-3%	0
Cc1ccc(S(=O)(=O)N(CCCO)Cc2cc3c(C)ccc(C)c3[nH]c2=O)cc1	-0.4	3	1.5	11	1	0.1	-2%	3
Cc1ccc(NC(=O)CSc2nc3ccccc3c(=O)n2CCCC(=O)NCC2CCCO2)cc1 (stereo not given)	12	-3	4.9	-6.1	0	1.1	25%	-9
SMILES	LANA-H2B inh	Beta apoptosis	RanGTP-Imp inh	MLL AF4-AF9 inh	Calb FLC	Bfl-1 A1 inh	Vif TR-FRET	T cruzi inh
COc1cccc(-c2nn(C)c3sc(C(=O)N4CCOCC4)cc23)c1	-4.9	/	6.8	-6.6	7	0.0	-3%	-2
CCn1cc(C(=O)N2CC=C(c3ccccc3)CC2)c(=O)c2ccc(C)nc21	-0.9	-2	7.9	1.6	16	0.3	1%	-7
COc1ccc(NC(=O)C2=CC=CN3CCS(=O)(=O)N=C23)c(OC)c1	3.2	-1	/	0.6	/	0.2	6%	/
CC1(c2ccccc2)NC(=O)N(NC(=O)COC(=O)c2cc(Br)ccc2O)C1=O (stereo not given)	-1.9	-10	2.0	?	1	0.2	-1%	-1
COc1ccccc1/C(C)=N/NC(=O)c1nnn(-c2nonc2N)c1C(C)C	-0.3	2	4.5	-2.5	/	0.2	/	13
Cc1ccccc1N1CCN(CCCCN2C(=O)C3CCCN3C2=O)CC1 (stereo not given)	/	-3	3.2	/	-43	2.0	3%	0
O=C1CCCC(=O)C1Sc1ccc(Cl)cc1	-3.8	-4	-1.1	0.1	-7	-0.1	-7%	32
CN1CCCN(C(=O)c2c(F)cccc2Cl)CC1	-3.3	3	2.7	-1.8	3	0.5	/	2
O=[N+]([O-])c1ccccc1CSc1nc2ccccc2o1	-5.0	-1	2.7	/	15	-3.2	2%	6
CN(CC(=O)Nc1ccc(Cl)c(C(F)(F)F)c1)C(=O)c1ccc2c(c1)OCCO2	-0.9	-4	-1.8	-0.9	-2	0.2	0%	-4
O=C(COc1nncc2ccccc12)Nc1c(F)c(F)c(F)c(F)c1F	0.3	-6	6.4	-1.0	-10	0.5	-8%	2
Cc1ccc(C(=O)N/C(=C\c2ccco2)C(=O)NCCCn2ccnc2)cc1	-5.4	-6	-2.0	/	-8	0.2	-2%	1
COc1ccc(S(=O)(=O)N(C)C[C@H]2Oc3ccc(NS(=O)(=O)c4cccs4)cc3CC(=O)N([C@H](C)CO)C[C@H]2C)cc1	11	5	/	-2.5&2.0	/	-0.7	/	/
CCOC(=O)c1sc(C)c2c(=O)n(CCCN3CCOCC3)cnc12	-2.3	6	0.7	/	-9	0.0	-8%	-21
CN(CCOc1ccc(Cl)cc1)C(=O)C1CCN(C(=O)c2ccc(Cl)cc2)CC1	1.3	/	3.5	-1.6	-1	0.7	-3%	15
NC(=O)CSc1nnc(SCc2ccc(F)cc2)s1	1.1	-6	3.5	-2.8	-7	-0.3	-4%	5
O=S(=O)(NCC1CCCO1)c1ccc(S(=O)(=O)N(Cc2ccccc2F)C2CCCCC2)cc1 (stereo not given)	-2.4	8	-3.2	/	-10	0.0	/	19
CCN(CC(=O)NCc1ccc(Cl)cc1)C(=O)CN1C(=O)NC(C)(c2ccccc2)C1=O (stereo not given)	5.7	/	0.6	2.5	0	1.2	-3%	14
CCN(CC)S(=O)(=O)c1ccc2c(c1)nc(CCC(=O)O)n2C	-0.7	0	-2.2	-2.7	0	2.7	-3%	23
Cc1cc(NC(=O)COC(=O)c2oc3c(ccc4ccccc43)c2C)no1	-5.6	20	-2.7	1.3	26	?	7%	-23
COc1ccccc1N1CCN(C(=O)c2sc3nc4n(c(=O)c3c2C)CCC4)CC1	-4.0	-3	3.5	0.6	5	-0.9	?	9
CC(=O)N1CCN(CC(=O)Nc2ccc3c(c2)CCC3)CC1	0.4	0	0.6	-0.4	-11	0.5	/	7
CCCNC(=O)c1onc(CSc2ccc(Cl)cc2)c1C(=O)NC(C)C	2.3	4	-4.9	-3.6	8	0.2	/	2
COc1ccc(S(=O)(=O)NCC(c2cccs2)N2CCc3ccccc3C2)cc1 (stereo not given)	-6.4	6	-3.7	-1.1	4	-0.3	1%	19
CCn1c(CSc2nc(C)cc(C)n2)nnc1SCC(=O)N1CCCc2ccccc21	-4.0	-2	0.7	/	-14	0.0	5%	11
SMILES	LANA-H2B inh	Beta apoptosis	RanGTP-Imp inh	MLL AF4-AF9 inh	Calb FLC	Bfl-1 A1 inh	Vif TR-FRET	T cruzi inh
COc1ccc(NC(=O)CCNC(=O)Cn2ccc3ccccc3c2=O)c(OC)c1	-2.4	-7	/	/	-4	0.0	-3%&4%	-4
CC(C)(C)c1ccc(-c2noc(CCC(=O)Nc3cccnc3)n2)cc1	-3.8	5	0.9	1.2	4	0.1	/	2
Cn1c(=O)c2c(nc(-c3ccccc3)n2C)n(Cc2ccccc2)c1=O	1.0	3	?	/	-7	-0.6	3%	4
Cc1nnc(SCC(=O)Nc2cc(C(C)(C)C)nn2-c2ccccc2)s1	-2.0	3	-0.6	/	-5	-0.2	0%	12
Cc1cc2ccccc2n1CCC(=O)O	-2.2	6	-3.6	-0.6	-7	0.4	6%	-9
Nc1nnnn1CC(=O)N/N=C/C=C/c1ccccc1	13	-7	2.0	-5.1	3	0.6	/	-22
CCn1c(SCC(=O)c2ccc(OC)cc2)nnc1C1CC1	0.2	/	-2.9	/	-28	-1.0	1%	-4
COc1ccc([C@@H]2[C@@H]3C(=O)N(C(C)(C)C)C(=O)[C@@H]3[C@]3(C)C(=O)N(c4cccc(Br)c4)C(=O)N23)cc1	3.8	1	5.0	/	16	-1.2	/	8
O=C(N/N=C/C=C\c1ccccc1[N+](=O)[O-])c1cccnc1	3.2	/	?	-0.7	11	2.3	0%	-15
COc1ccc2nc(Cl)c(C3CC(c4ccco4)=NN3C(=O)CCC(=O)O)cc2c1 (stereo not given)	-6.0	-8	5.6	/	3	1.1	?	-9
COc1ccc(NC(=O)c2oc3ccccc3c2NC(=O)c2ccc3c(c2)OCO3)cc1	0.1	6	2.9	/	-7	-1.4	14%	15
CCN(Cc1ccccc1)C(=O)c1cc(-c2ccc(OC)c(OC)c2)nc2ccccc12	-2.7	9	-1.2	1.8	21	-0.1	/	10
N/C(=N\OC(=O)N1CCOCC1)c1ccc(Br)cc1	1.6	2	-4.1	-1.3	-12	0.8	-8%	38
COc1ccc(NC(=O)CN(C)CC(=O)NC2CCC(C)CC2)cc1 (stereo not given)	-3.1	-2	/	0.2	/	-0.6	/	/
COc1ccc(N2CC(C(=O)Nc3nnc(SCC(=O)NCc4ccco4)s3)CC2=O)cc1 (stereo not given)	0.5	-1	-2.6	-1.9	-7	0.2	/	12
O=C(CNC(=O)C(c1ccccc1)c1ccccc1)N/N=C\c1ccc(C(=O)O)cc1	-0.5	-6	3.5	-11	-4	-1.0	1%	-28
COc1ccc(OCC(=O)N(Cc2ccco2)C2CCS(=O)(=O)C2)cc1 (stereo not given)	1.3	-4	2.3	-1.3	-14	0.8	7%	-27
